TRPML1 agonist – qHTS for Agonists of the Human Mucolipin Transient Receptor Potential 1 (TRPML1); TRPML1-expressing cells, Ca2+ dye fluorescence, FDSS; host cell line not named in the record; reference of the full effect not given here; activation, % (no concentration beside the values); hit rate 0.12% among 410,000; AID 624414, 2012; in the data active = activation above about 50%; inconclusive = about 30% to 50%; inactive = below about 30%; also: 0% is about no effect; the text of the record puts the active cut at 80%
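Kinetic FDSS Ca2+ read in Tet-induced TRPML1-DL cells (ABD Ca8 dye plus quencher, 45-90 min RT loading): baseline, then compound, then 110 s agonist window; EC80 agonist 54-4 at 4uM final added afterwards for a 110 s antagonist window.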
TRPML1 inh – qHTS for Inhibitors of the Human Mucolipin Transient Receptor Potential 1 (TRPML1) | activity change, negative = inhibition, % (test concentration not listed) | Mucolipin-1 (Homo sapiens), Q9GZU1 | AID 624415, 2012 | TRPML1-inducible cells, Ca2+ dye fluorescence, FDSS; stronger effect = lower value; inhibition of EC80 agonist-evoked calcium signal | hit rate 0.02% among 390,000; in the data active means activity change below about -50%; inconclusive means about -30% to -50%; inactive means above about -30%;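 also: stimulus is agonist 54-4 at its EC80 concentration; % is scaled to controls: 0 for no effect and ±100 for the full control effect; compound concentration not given in the record; the text of the record puts the active cut at -80%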
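Calcium fluorescence in TRPML1-DL cells induced overnight with Tet: a 110 s read after compound pin addition, then a 110 s antagonist read after challenge with 54-4 at 4 uM final (EC80).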
D2 potentiator – Beta-Arrestin HTS for Positive Allosteric Modulators of the Human D2 Dopamine Receptor: Potentiators. D(2) dopamine receptor (Homo sapiens), P14416. DiscoveRx D2 beta-arrestin cells, luminescence, 90 min; 100% = 57 uM dopamine signal. potentiation, % (concentration not given with the values). hit rate 0.23% among 360,000. AID 624464, 2012; active = potentiation of 50% or more; inconclusive = 30% to 50%; inactive = 30% or less;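 also: compound concentration not given in the record; tested on top of an EC20 dose of dopamine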
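D2 cells co-treated with compound plus 50 nM dopamine (EC20) for 90 min at 37 deg C to detect potentiation. Beta-arrestin recruitment was read as enzyme-fragment luminescence after 1 h at ambient temperature. Full response was set by 57 uM dopamine.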
D2 ag – Beta-Arrestin HTS for Positive Allosteric Modulators of the Human D2 Dopamine Receptor: Agonists; hit rate 0.084% among 360,000; activation, % (no concentration beside the values); DiscoveRx PathHunter D2 beta-arrestin, luminescence, 90 min; 100% = 57 uM dopamine signal; D(2) dopamine receptor (Homo sapiens), P14416; in the data active = activation above about 40%; inconclusive = about 15% to 40%; inactive = below about 15%; also: compound concentration not given in the record; the text of the record calls up to 30% inactive
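Agonist mode: compounds alone added to overnight-plated D2 PathHunter cells for 90 min at 37 C, with 57 uM final dopamine (EC100) defining full response. Beta-arrestin recruitment detected by chemiluminescent reagent, read after 1 h at ambient temperature.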
Six1-Eya2 inh – qHTS Assay for Inhibitors of the Six1/Eya2 Interaction | Homeobox protein SIX1 (Homo sapiens) + Protein phosphatase EYA2 (Homo sapiens), … | AlphaScreen GST-Six1/His-Eya2 binding, biochemical; stronger effect = lower value; control for the full effect not named in the record | activity change, % (concentration not given with the values) | hit rate 0.56% among 360,000 | AID 651725, 2012; in the data active = activity change below about -65%; inconclusive = about -30% to -65%; inactive = above about -30%; also: % is scaled to controls: 0 for no effect and ±100 for the full control effect
Target sequence (O00167 whole entry, looked up): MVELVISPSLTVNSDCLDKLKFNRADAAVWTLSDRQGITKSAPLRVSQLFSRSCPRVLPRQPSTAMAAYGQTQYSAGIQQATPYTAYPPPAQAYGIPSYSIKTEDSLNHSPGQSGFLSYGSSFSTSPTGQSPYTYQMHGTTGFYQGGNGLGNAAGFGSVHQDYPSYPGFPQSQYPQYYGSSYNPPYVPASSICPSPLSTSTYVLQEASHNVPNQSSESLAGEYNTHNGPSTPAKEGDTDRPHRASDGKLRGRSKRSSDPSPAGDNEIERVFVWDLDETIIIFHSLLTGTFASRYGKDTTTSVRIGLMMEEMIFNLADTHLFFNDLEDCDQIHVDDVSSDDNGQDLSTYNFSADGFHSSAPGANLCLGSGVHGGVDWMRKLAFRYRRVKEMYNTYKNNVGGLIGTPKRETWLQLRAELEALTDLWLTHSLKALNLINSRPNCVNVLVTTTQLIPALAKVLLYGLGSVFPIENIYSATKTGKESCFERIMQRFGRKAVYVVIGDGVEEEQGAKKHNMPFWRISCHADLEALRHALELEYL
Target sequence (Q15475 whole entry, looked up): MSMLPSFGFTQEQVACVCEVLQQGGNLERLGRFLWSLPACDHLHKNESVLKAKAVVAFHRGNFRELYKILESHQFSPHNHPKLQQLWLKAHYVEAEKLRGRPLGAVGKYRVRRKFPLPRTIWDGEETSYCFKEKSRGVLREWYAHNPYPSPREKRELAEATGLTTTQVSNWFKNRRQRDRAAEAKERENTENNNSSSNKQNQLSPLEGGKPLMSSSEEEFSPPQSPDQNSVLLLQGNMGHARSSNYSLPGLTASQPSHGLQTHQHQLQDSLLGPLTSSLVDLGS
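Homogeneous AlphaScreen proximity assay pairing GST-Six1 with His-tagged Eya2 (added as 5X mix: 250 nM and 500 nM) in 50 mM Tris pH 8.0, 300 mM NaCl, 1 mM TCEP. Glutathione donor and nickel acceptor beads; 1 h, 37 °C, dark.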
PINK1 modulator – A Quantitative High throughput Screen to Identify Chemical Modulators of PINK1 Expression. PINK1 immunofluorescence, high-content cytometry, 24 h. Potency, µM (top dose mostly 76.6 µM), for inactives: top-dose activation (PINK1 increase), hits mostly activators. hit rate 0.2% among 410,000. AID 624263, 2012; active = well fitted activation curve with a large enough effect; inconclusive = small, poorly fitted or top-dose-only effect; inactive = flat fitted curve, though single readings scatter; cell line not stated here;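 also: potency is read from the fitted curve at half-maximal effect; % of control where 0% means no effect; nearly all actives have a fitted effect of over 65% in size; a mitochondrial uncoupler was the plate control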
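Stable cell line treated 24 h with compounds at 5 concentrations (CCCP controls), then fixed and immunostained for PINK1 plus nuclear and cell stains; PINK1 immunofluorescence quantified by laser-scanning microplate cytometry.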
The depositor's hits bear a star; ? = inconclusive; · = no result given; & = joins results of further samples; [ ] = remark or other dose.

SMILES	TRPML1 agonist	TRPML1 inh	D2 potentiator	D2 ag	Six1-Eya2 inh	PINK1 modulator
O=C(NCc1ccccc1Cl)[C@H]1CCCN1C(=O)[C@H]1CCCN1C(=O)c1cccc2ccccc12	1.3	·	·	·	-6	1.6%
CCOC(=O)c1cccc(NS(=O)(=O)c2c(C)[nH]c(C)c2C(=O)N2CCCC2)c1	-1.1	31	-5	1.6	-11	-1.9%
COc1cccc(S(=O)(=O)N(C)C[C@@H]2OCc3cnnn3CCCC(=O)N([C@H](C)CO)C[C@H]2C)c1	0.5	27	-14	-8.4	4	0.9%
CS(=O)(=O)c1ccc(Cl)c(NC(=O)CSc2nnc(-c3cccs3)n2N)c1	-0.7	1	-20	-5.0	-3	1.5%
CCC1CN(C(=O)NCc2ccc(F)cc2)c2cc(Cl)ccc2O1 (stereo not given)	1.2&2.2	35&34	-5	0.9	15	1.6%&1.5%
CC(=NNC1=NCCN1)c1cnn(C2=NCCN2)c1C	-0.6	·	-8	-1.7	0	0.0%
COc1ccc(-c2noc(C3CCCN(C(=O)c4cccc(F)c4)C3)n2)cc1 (stereo not given)	2.5	8	-6	3.8	-5	-1.1%
CCOC(=O)N1CCN(C(=O)c2ccc(OCC)c(OCC)c2)CC1	-0.1	-6	-20	-4.7	-3	-0.9%
O=C(NCCOC(=O)c1c(F)cccc1Cl)c1c(F)cccc1Cl	0.6	5	-13	2.0	9	1.1%
COc1ccc(C(=O)NCc2cn3ccc(C)cc3n2)cc1	-0.5	-7	·	·	·	0.0%
COc1cc(NC(=O)Cn2cc(S(=O)(=O)c3ccccc3)c(=O)c3ccccc32)cc(OC)c1	-0.8	43	·	·	·	0.0%
CCCc1cc(=O)n2[nH]c(NC(=O)c3ccc(C(C)(C)C)cc3)nc2n1	-0.1	2	·	·	·	0.1%
O=C(/C=C/c1ccccc1)NCCc1c[nH]c2ccccc12	1.4	-18	-3	-2.0	5	-2.3%
CCN(CC)c1nc(N)c2c(N)n(-c3ccccc3C)c(=S)c(C#N)c2c1C#N	1.6	37	10	2.3	?	-2.2%
O=C(Nc1nnc(-c2ccccc2Cl)s1)C1CCN(S(=O)(=O)c2ccc(Cl)cc2)CC1	0.5	-10	-6	0.5	24	7.4%
COc1ccc(-c2nc3n(n2)C(c2ccc(O)cc2)C(C(=O)Nc2cccnc2)=C(C)N3)cc1OC (stereo not given)	-0.7	-19	·	·	·	1.1%
CC(C)c1ccc(NC(=O)C2(C)Cc3c(-c4ccc5c(c4)OCO5)ccnc3O2)cc1 (stereo not given)	0.1	·	-10	-5.8	-4	11%
O=C(COc1cccc(Cl)c1)N/N=C\c1cc2ccccc2nc1Cl	-1.0	7	-9	-1.7	7	9.1%
COC(=O)c1ccc(NC(=S)NC(=O)c2c(-c3ccccc3)noc2C)cc1	1.3	-4	-16	-1.0	-3	1.5%
CCN(Cc1ccccc1)S(=O)(=O)c1ccc(C(=O)N(CCCN(C)C)c2nc3ccc(F)cc3s2)cc1	-0.4	4	-7	-5.5	-14	-1.7%
Cc1cccc(C#Cc2ccccc2)n1	-0.3&-0.5	-2	-15	-3.8	?	1.4%&1.0%
O=C(O)C1CC(=O)N(C2CCCCCC2)C1 (stereo not given)	5.1	19	-7	-2.7	-2	-2.5%
O=C(NCc1ccccn1)c1cccc(NS(=O)(=O)c2cccc(Cl)c2)c1	0.1	0	-1	-2.6	0	0.0%
CCC(=O)N1CCc2cc(S(=O)(=O)NCCC(=O)N3CCN(c4cccc(C)c4)C(C)C3)ccc21 (stereo not given)	4.3	10	-1	8.2	-9	3.5%
CN1C(=O)C(C)(C)c2cc(S(=O)(=O)N3CCCCCC3)ccc21	-0.4	-3	-5	-5.0	1	0.8%
SMILES	TRPML1 agonist	TRPML1 inh	D2 potentiator	D2 ag	Six1-Eya2 inh	PINK1 modulator
CCOc1ccc(Br)cc1S(=O)(=O)Nc1ccc(C(=O)Nc2ccccc2OC)cc1	0.0	37	-7	-4.9	3	8.8%
CN(C)c1ccc(C(CNS(=O)(=O)c2ccc(F)c(F)c2)c2c[nH]c3ccccc23)cc1 (stereo not given)	1.4	-3	10	3.7	?	11%
Cc1ccc(C(c2cc(Br)ccc2O)N2CCSCC2)cc1 (stereo not given)	0.5	-7	-14	-3.1	-9	5.8%
COC(=O)C1=C(C)N(Cc2ccccc2)C(=O)N[C@H]1c1cccs1	0.2	-7	-8	-3.2	-5	3.5%
CCN1CCN(C(=O)c2cc3cc4ccc(OC)cc4nc3s2)CC1	-0.1	1	-19	-0.6	-19	0.4%
Cc1ccc(NC(=O)C2CCC(N3C(=O)C4CCCCC4C3=O)CC2)cc1 (stereo not given)	0.7	-5	-6	-3.7	-1	-1.4%
CCN(CC)CCSc1nc2ccccc2c(=S)n1-c1ccccc1	-1.0	-5	-25	-3.2	-21	12%
O=C(CSc1ccc2nnc(-c3ccccc3)n2n1)N1CCCCC1	-0.5	-9	8	2.1	11	13%
Cc1cc(C)n(CCN(C)c2nc3nonc3nc2N2CCCCC2)n1	-0.9	-1	-4	0.1	-4	5.1%
O=C(NCCOc1ccccc1)c1cncc(Br)c1	-0.5	-7	-12	-3.5	-1	-0.7%
COc1ccc2c(=O)cc(-c3ccncc3)oc2c1OC	-0.6	5	0	-2.2	-2	-1.4%
Cn1cc(S(=O)(=O)NCc2ccc(Cl)cc2)c(=O)n(C)c1=O	0.3	?	-2	-3.7	-2	-1.7%
O=c1c2ccc(Cl)cc2[nH]c(=S)n1CCCN1CCOCC1	0.0	-14	-18	-4.9	-15	3.0%
O=C1C=C(NCc2ccc(Cl)cc2Cl)C2(CCCCC2)O1	0.9	-19	-10	-0.1	-1	-2.4%[38.3 µM]
COC(=O)Nc1ccc([N+](=O)[O-])cc1OC	0.3	19	-13	-2.1	5	-1.7%
O=C(c1ccc2nsnc2c1)N1CCN(c2ccc([N+](=O)[O-])cc2)CC1	1.7	-6	-11	4.0	-8	-0.9%
Cc1ccccc1NS(=O)(=O)c1ccc(C(=O)N2CCCCCC2)cc1	4.3	-8	-8	-0.1	6	-1.6%
CC1(C(=O)N2CCN(C(=O)c3ccco3)CC2)CC1(Br)Br (stereo not given)	-0.4	21	-1	0.3	5	3.3%
Cc1noc(C)c1S(=O)(=O)N1CCC(C(=O)N2CCC(N3CCCCC3)CC2)CC1	0.1	-6	-3	3.3	2	0.7%
O=C(CSc1nnc(-c2ccccc2F)o1)Nc1ccccc1Cl	2.6	-26	·	·	·	1.2%
CCOCc1cnc(C)nc1NCC(=O)c1c(C)[nH]c2ccccc12	1.3	53	-30	-3.2	-13	-0.6%
Cc1ccc(-c2nc(CSc3nc4ccccc4c(=O)n3C)cs2)cc1	2.8	15	-11	1.3	6	0.0%
O=C(CSc1nc2ccccc2c(=O)n1-c1ccccc1F)Nc1ccc2c(c1)CCC2	1.3	17	-9	5.0	-5	-0.9%
Cc1ccc(OCCSc2nc3ccccc3n2CC(=O)N2CCOCC2)cc1	1.0	8	·	·	·	1.5%
COc1ccc(-c2nnc(SCC(=O)c3ccc(C)o3)o2)cc1	-0.7	4	-3	-1.5	4	-1.0%

Just TRPML1 agonist and PINK1 modulator (five entries from above):
| Structure | TRPML1 agonist | PINK1 modulator |
| --- | --- | --- |
| Cc1ccccc1NS(=O)(=O)c1ccc(C(=O)N2CCCCCC2)cc1 | 4.3 | -1.6% |
| CC1(C(=O)N2CCN(C(=O)c3ccco3)CC2)CC1(Br)Br (stereo not given) | -0.4 | 3.3% |
| Cc1noc(C)c1S(=O)(=O)N1CCC(C(=O)N2CCC(N3CCCCC3)CC2)CC1 | 0.1 | 0.7% |
| O=C(CSc1nnc(-c2ccccc2F)o1)Nc1ccccc1Cl | 2.6 | 1.2% |
| CCOCc1cnc(C)nc1NCC(=O)c1c(C)[nH]c2ccccc12 | 1.3 | -0.6% |

Among those listed so far, 2 have a nitro group on carbon:
SMILES	TRPML1 agonist	TRPML1 inh	D2 potentiator	D2 ag	Six1-Eya2 inh	PINK1 modulator
COC(=O)Nc1ccc([N+](=O)[O-])cc1OC	0.3	19	-13	-2.1	5	-1.7%
O=C(c1ccc2nsnc2c1)N1CCN(c2ccc([N+](=O)[O-])cc2)CC1	1.7	-6	-11	4.0	-8	-0.9%

Further records.
SMILES	TRPML1 agonist	TRPML1 inh	D2 potentiator	D2 ag	Six1-Eya2 inh	PINK1 modulator
COc1cc(C2c3c(oc4ccccc4c3=O)C(=O)N2Cc2ccco2)ccc1O (stereo not given)	1.6	-15	7	-0.8	0	-1.4%
CC(=O)Nc1cccc(NC(=O)CSc2cn(CC(=O)N3CCCCCC3)c3ccccc23)c1	1.1	-2	·	·	·	0.6%
CN(C)S(=O)(=O)c1cc(NC(=O)CN2C(=O)NC3(CCCc4ccccc43)C2=O)ccc1Cl (stereo not given)	0.8	-19	-1	-0.1	-3	7.7%
Cc1nc(Sc2ccccc2)c(C#N)c(C)c1[N+](=O)[O-]	1.4	-4	0	1.2	-10	-1.9%
COc1ccc(C)cc1NC(=O)C(CCS(C)(=O)=O)NC(C)=O (stereo not given)	0.0	-9	-4	-4.8	-2	0.8%
Cc1ccc(OCC(=O)NCC(=O)OCc2cc(=O)n3nc(CC(C)C)sc3n2)cc1	-0.9	-5	·	·	·	4.1%
CC1CCc2nn(CC(=O)NCCCN3CCCCC3)cc2C1 (stereo not given)	0.2	9	-1	-2.9	4	0.4%
Cc1ccc(Cl)cc1N1CCN(C(=O)C2CCN(S(=O)(=O)c3c(C)noc3/C=C/c3ccccc3F)CC2)CC1	0.5	-14	·	·	·	3.4%
O=C(CSc1ncccn1)NCCC1=CCCCC1	-0.3	6	2	-1.0	2	-3.6%
O=C1OCC2=C1C(c1ccc(Cl)cc1)CC(=O)N2c1ccc(F)cc1 (stereo not given)	-1.2	47	-6	0.3	2	1.5%
O=c1cc(CSc2nnc(-c3cccs3)n2Cc2ccccc2)nc2sc3ccccc3n12	-0.9	-1	14	0.2	-16	-1.2%
Cc1cc(OCC(=O)Nc2ccc(-c3nc4cc(Cl)ccc4o3)cc2)cc(C)c1Cl	-0.7	-1	·	·	·	1.5%
Cc1ccc(CN2CCC(CNC(=O)Nc3ccc(Cl)cc3)C2)cc1 (stereo not given)	-0.5	-17	·	·	·	-0.2%

Structural class: the entries above containing a cyano group.
SMILES	TRPML1 agonist	TRPML1 inh	D2 potentiator	D2 ag	Six1-Eya2 inh	PINK1 modulator
CCN(CC)c1nc(N)c2c(N)n(-c3ccccc3C)c(=S)c(C#N)c2c1C#N	1.6	37	10	2.3	?	-2.2%
Cc1nc(Sc2ccccc2)c(C#N)c(C)c1[N+](=O)[O-]	1.4	-4	0	1.2	-10	-1.9%
